Source: PubChem BioAssay (National Center for Advancing Translational Sciences (NCATS))
LASV entry inh: inhibitors of Lassa virus binding or cell entry; Lassa virus pseudotype entry inhibition, cell reporter; control for the full effect not named in the record; Potency, µM (top dose mostly 37.9 µM), without a hit: top-dose activity change, negative = inhibition, hits mostly inhibitors; 300,000 tested, 1.2% active; AID 540256; active means well fitted inhibition curve with a large enough effect; inconclusive means small, poorly fitted or top-dose-only effect, or effect the other way; inactive means flat fitted curve, though single readings scatter; tested in HEK293 cells; note: % is set by controls: 0 for no effect and ±100 for the full control effect; nearly all actives have a fitted effect of over 50% in size; luciferase read-out
2A StopGo: FMDV 2A StopGo reporter, luciferase signal; human cells with a luciferase reporter of 2A StopGo recoding; control for the full effect not named in the record; Potency, µM (highest dose often 57.9 µM), without a hit: at the highest dose signal change, negative = less light; 410,000 tested, 1.2% active; AID 1159524; active = well fitted falling curve with a large enough effect; inconclusive = small, poorly fitted or top-dose-only effect; inactive = no such curve, though single readings can be large or run the other way; tested in HEK293T cells; note: % is set by controls: 0 for no effect and ±100 for the full control effect; nearly all actives have a fitted effect of over 45% in size; luciferase light after 4 h
NS1 function inh: influenza NS1 inhibition; Potency, µM (top dose mostly 46.1 µM), for inactives: top-dose activity, positive = more growth; AID 2326; 270,000 tested, 0.4% active; S. cerevisiae slowed by influenza A NS1, growth recovery by OD600; active means well fitted rising curve with a large enough effect; inconclusive means small, poorly fitted or top-dose-only effect; inactive means no such curve, though single readings can be large or run the other way; note: nearly all actives have a fitted effect of over 50% in size
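Recovery from NS1-induced slow growth read by OD600 in budding yeast switched to galactose assay medium (pH 6.0, -URA) at 1:100 dilution. Compound 23 nl per well; the matching strain lacking NS1 serves as control.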
Cruzain Triton: blocks cruzain activity in presence of Triton detergent | 200,000 tested, 0.43% active | purified cruzain, Z-FR-AMC fluorescence, 0.01% Triton | Potency, µM, without a hit: max response, negative = inhibition, usual class: inhibitors;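 note: plate controls were neutral wells for no effect and buffer without enzyme for full effect; nearly all actives have a fitted effect of over 40% in size; top concentration of the series not given in the record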
Target sequence (P25779 123-467 limits assumed): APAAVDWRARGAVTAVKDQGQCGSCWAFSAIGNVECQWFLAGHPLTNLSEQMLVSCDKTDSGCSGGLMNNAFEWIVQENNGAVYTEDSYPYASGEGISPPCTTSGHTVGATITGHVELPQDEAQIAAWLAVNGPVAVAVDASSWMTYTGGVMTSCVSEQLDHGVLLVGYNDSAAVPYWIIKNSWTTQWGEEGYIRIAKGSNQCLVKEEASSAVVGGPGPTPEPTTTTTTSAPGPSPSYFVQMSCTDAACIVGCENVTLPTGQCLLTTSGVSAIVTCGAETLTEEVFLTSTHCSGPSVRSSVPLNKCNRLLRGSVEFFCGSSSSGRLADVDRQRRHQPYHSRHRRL
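Enzyme 1.5 nM, Z-FR-AMC 2 uM, NaOAc 100 mM pH 5.5, DTT 5 mM, Triton X-100 0.01%; 15 min RT compound preincubation; kinetic ex360/em450, 60 s delta.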
Cruzain noTriton: cruzain (T. cruzi) inhibition without detergent | 200,000 tested, 2.3% active | purified cruzain, Z-FR-AMC fluorescence, no detergent | Potency, µM, without a hit: max response, negative = inhibition, usual class: inhibitors | AID 1476 | P25779;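 note: plate controls were enzyme without inhibitor for no effect and buffer without enzyme for full effect; nearly all actives have a fitted effect of over 40% in size; top concentration of the series not given in the record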
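Purified cruzain at 1.5 nM, pre-incubated 15 min with compound at room temperature in 100 mM sodium acetate pH 5.5, 5 mM DTT, 0.00005% Triton X-100. Reaction started with 2 uM Z-FR-AMC; AMC fluorescence increase over 60 s gives rate.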
Marburg entry inh: blocks Marburg virus binding to or entry into cells | Marburg virus pseudotyped entry inhibition, cell reporter; control for the full effect not named in the record; about a third of the inactives were read at about 46 µM | Potency, µM (titrated, usually from 37.8 µM), for inactives: at the top dose activity change, negative = inhibition, usual class: inhibitors | 300,000 tested, 1.8% active; active = well fitted inhibition curve with a large enough effect; inconclusive = small, poorly fitted or top-dose-only effect, or effect the other way; inactive = flat fitted curve, though single readings scatter; tested in HEK293 cells; about a fifth of its hits are not listed in these tables; note: % is set by controls: 0 for no effect and ±100 for the full control effect; luciferase read-out
SARS PLP yeast: inhibitors of SARS-CoV papain-like protease in yeast; S. cerevisiae expressing SARS-CoV PLpro, growth rescue; control for the full effect not named in the record; Potency, µM (titrated, usually from 32.9 µM), inactives show at the top dose activity, positive = growth rescue; 330,000 tested, 0.19% active; AID 485353; active means well fitted rising curve with a large enough effect; inconclusive means small, poorly fitted or top-dose-only effect; inactive means no such curve, though single readings can be large or run the other way; note: 0% is about no effect; nearly all actives have a fitted effect of over 55% in size; growth read by luminescence after 48 h
RE007 growth inh: less growth of the S. pombe RE007 Vpr strain; S. pombe RE007 Vpr strain, BacTiter-Glo ATP luminescence, 24 h; control for the full effect not named in the record; Potency, µM (series often up to 92.2 µM), without a hit: at the top dose activity change, negative = less growth; 360,000 tested, 0.21% active; AID 651644; active = well fitted falling curve with a large enough effect; inconclusive = small, poorly fitted or top-dose-only effect; inactive = no such curve, though single readings can be large or run the other way;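 note: % is set by controls: 0 for no effect and ±100 for the full control effect; nearly all actives have a fitted effect of over 50% in size; the assay follows cell death caused by Vpr and the record does not say whether a fall means rescue or toxicity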
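Fission yeast RE007 carrying one integrated HIV-1 vpr copy, seeded at OD 0.01 in PMG+AL medium with 23 nL pinned compound. Grown 24 h at 30 degrees; viability read by BacTiter-Glo luminescence after 5 min.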
Starred values were filed as active, the others as inactive; ? = inconclusive; . = not tested or not shown; & = joins results of further samples; [ ] = dose if it differs, or a comment. Unless noted, calls come from the whole dose curve; as a rule, active = well fitted curve in the direction sought with a large enough effect; inconclusive = small, poorly fitted or top-dose-only effect, or another doubt; inactive = no such curve, though single readings can be large; an effect the other way counts as inactive or inconclusive. Potency is the fitted concentration of half-maximal effect.

Sequence of screens – SARS PLP yeast, Cruzain noTriton, Cruzain Triton, Marburg entry inh, LASV entry inh, 2A StopGo, RE007 growth inh, NS1 function inh
- CC(=O)Nc1sc2c(c1CN1CCN(c3ccc(F)cc3)CC1)CCCC2
    -5%, -2%, 1.9%, 10µM*, ?, ?, 31%, -10%
- CCOC(=O)C1(Cc2cccc(OC)c2)CCCN(Cc2c(C)nn(C(C)C)c2C)C1 (configuration not stated)
    0%, ., ., ., ., -10%, -8%, 0%
- COc1ncnc2c1NC(=O)CS2
    -9%, -9%, 5.4%, -7%, 3%, -18%, 20%, 6%
- Cc1cc(C)c(NC(=O)Cn2c(=O)n(CC(=O)NCCc3ccccc3)c(=O)c3ccccc32)c(C)c1
    ., -7%, 3.4%, 6%[46.1 µM], -3%[46.1 µM], -12%, ., .
- COc1cc(C2C(C#N)=C(C)NC3=C2C(=O)CC(C)(C)C3)ccc1OCCO (configuration not stated)
    0%, 1%, -3.9%, 27%, -10%, -18%, -4%, -4%
- COc1ccc(N2CCN(C(=O)CSc3nnc(-c4cccnc4)n3-c3ccccc3)CC2)cc1
    4%, 21%, 3.9%, -1%[46.1 µM], -18%, -11%, 5%, 0%
- Cc1ccc(S(=O)(=O)N2CCC(NC(=O)C3CCCCC3)CC2)cc1
    3%, ., ., 13%[46.1 µM], 16%, -7%, 4%, ?
- CC(C)(Oc1ccc(Br)cc1)C(=O)Nc1cc(-c2nc3ccccc3[nH]2)ccc1Cl
    ., -8%, 0.6%, ?, -8%[46.1 µM], -12%, ., .
- CC(C)CNC(=O)N[C@@H](CC(C)C)C(=O)O
    -5%, ., ., ., ., -4%, 12%, 4%
- Cc1ccc(NC(=O)CSC2=C(C#N)C(c3ccco3)CC(=O)N2)cc1 (configuration not stated)
    2%, -2%, -2.7%, 2%, 14%, 12%, 14%, -3%
- Cc1cccc(N2C(=O)C3C4C=CC(C4)C3C2=O)c1 (configuration not stated)
    -4%, -7%, 0.3%, 3%, ?, -6%, 2%, -7%
- CCc1ccc(CN(C)C(=O)CCc2nnc(CCc3cccc(OC)c3)o2)nc1
    -1%, ., ., ., ., -10%, -5%, 1%
- CCc1ccc(-n2c(=O)c3ccccc3n(Cc3ccccc3C#N)c2=O)cc1
    ., -2%, -0.7%, 9%[46.1 µM], -7%[46.1 µM], -9%, ., .
- CCCCCCSC1=C(C#N)C(c2ccccc2)CC(=O)N1 (configuration not stated)
    2%, -4%, -6.0%, -13%, -2%, ., -2%, -7%
- COc1ccc(CC2CCOC2=O)cc1 (configuration not stated)
    1%, 2%, 1.1%, 0%, -1%, 6%, 8%, -10%
- O=C(/C=C/c1cccc(Cl)c1)c1nc2ccccc2[nH]1
    -36%, ?, -4.5%, ?, ?, ?, ?, -117%
- CC1=C(C(=O)Nc2ccccc2)C(c2ccncc2)n2nc(SCc3ccccc3)nc2N1 (configuration not stated)
    ., 0%, -0.2%, 2%[46.1 µM], 21%[46.1 µM], -9%, ., .
- COc1cccc(OC)c1C(=O)Nn1c(C2CCC2)nc2ccccc2c1=O
    15%, 11%, -1.1%, ?, 1%, -20%, -3%, -2%
- O=C(NCc1cccs1)C1CCC(=O)N1C1CCCCC1 (configuration not stated)
    0%, 0%, 2.9%, 7%, -24%, 11%, 4%, 10%
- COc1cc(C(=O)OCc2ccc([N+](=O)[O-])cc2)cc(OC)c1OC
    0%, ., ., ., ., -2%, 0%, 2%

Single entries from the entries so far:
Result for COc1ccc(N2CCN(C(=O)CSc3nnc(-c4cccnc4)n3-c3ccccc3)CC2)cc1 in Marburg entry inh: -1%[46.1 µM]
Result for CCc1ccc(-n2c(=O)c3ccccc3n(Cc3ccccc3C#N)c2=O)cc1 in Cruzain Triton: -0.7%

Gathered by group, those above with a Cl atom.
Sequence of screens – SARS PLP yeast, Cruzain noTriton, Cruzain Triton, Marburg entry inh, LASV entry inh, 2A StopGo, RE007 growth inh, NS1 function inh
- CC(C)(Oc1ccc(Br)cc1)C(=O)Nc1cc(-c2nc3ccccc3[nH]2)ccc1Cl
    ., -8%, 0.6%, ?, -8%[46.1 µM], -12%, ., .
- O=C(/C=C/c1cccc(Cl)c1)c1nc2ccccc2[nH]1
    -36%, ?, -4.5%, ?, ?, ?, ?, -117%

(continued)
Sequence of screens – SARS PLP yeast, Cruzain noTriton, Cruzain Triton, Marburg entry inh, LASV entry inh, 2A StopGo, RE007 growth inh, NS1 function inh
- COc1ccc(C(=O)NN/C(C)=C/C(=O)c2ccccc2)cc1
    -2%, ., ., 4%[46.1 µM], -2%[46.1 µM], -4%, -3%, 12%
- O=C(O)c1ccc(CNC(=O)C23CC4CC(CC(C4)C2)C3)cc1
    18%, ., ., -5%[46.1 µM], -3%, 4%, 1%, 11%
- Cc1nnc(NC(=O)CC(CN(C)S(=O)(=O)c2ccccc2)c2ccccc2)s1 (configuration not stated)
    -1%, 8%, -4.2%, ., ., -12%, 15%, 2%
- Cc1cc(CN(C)C)c(O)c(C2(C)CCCCC2)c1
    3%, 1%, 0.1%, -12%, -3%, ?, -2%, 2%
- COCCn1c(SCC(=O)Nc2cccnc2Cl)nc2ccccc2c1=O
    0%, ., ., -6%, 8%, -20%, -11%, .
- C=CCN=C1SC(C)(C)C(=O)N1S(=O)(=O)c1ccc(C)cc1
    -1%, ., ., -26%[46.1 µM], -18%, -3%, 16%, .
- O=c1[nH]c(=O)n(Cc2ccccc2)c2nc(-c3ccc(C(F)(F)F)cc3)n(CCO)c12
    0%, ., ., -29%, ?, 35%[activator], -7%, -2%
- O=c1oc2ccccc2c2c1ncn2CCN1CCOCC1
    3%, 1%, 0.6%, 14%, 9%, 0%, 9%, 0%
- CCCCOc1ccc(C2C(C(=O)Nc3ccccc3OC)=C(C)Nc3nnnn32)cc1OC (configuration not stated)
    ., 14%, -0.6%, 25%[46.1 µM], -27%[46.1 µM], -18%, ., .
- Cc1ccc(C(=O)Nc2ccccc2C(=O)OCc2cc(=O)n3nc(C(C)C)sc3n2)cc1
    ., 0%, 0.8%, ., 22%[46.1 µM], -24%, ., .
- Cc1cc(=O)oc2c(CN3CCCC3)c(O)ccc12
    -3%, ., ., ., ., -5%, -3%, 2%
- N/C(=N\OC(=O)CCCCCN1C(=O)c2ccccc2C1=O)c1ccccc1
    1%, 7%, 6.6%, ?, 11%, ., 10%, -12%
- COc1ccc(/C=N/NC(=S)NC2CCS(=O)(=O)C2)cc1 (configuration not stated)
    5%, 8%, -11%, -31%, -21%, -7%, 9%, 12%
- O=C(CCN1C(=O)C2CC=CCC2C1=O)Nc1ccccc1Cl (configuration not stated)
    1%, ., ., 4%[46.1 µM], 27%[46.1 µM], 11%, -18%, 10%
- Cc1cc2c(cc1S(=O)(=O)N(CCO)Cc1ccccc1)OCC(=O)N2
    ., 11%, 1.7%, ., -1%[46.1 µM], 6%, ., .
- CN(C(=O)COC(=O)c1c[nH]c(=O)[nH]c1=O)C1CCCCC1
    6%, 6%, 1.3%, -6%, 1%, -16%, 4%, -3%
- CCCSc1nc2cc(C)c(C)cc2n1CC(O)CO (configuration not stated)
    1%, ., ., ., ., 41%[activator], -2%, -1%
- COc1cccc(C(=O)Nc2ccc3c(c2)n(C)c(=O)n3C)c1
    2%, ., ., -6%, 14%, 41%[activator], 1%, 6%
- CCc1cccc(C)c1NC(=O)C(CC)Sc1nc2ccncc2[nH]1 (configuration not stated)
    ., 0%, -4.7%, ., 6%[46.1 µM], -18%, ., .
- Cc1sc2ncnc(NCC(c3ccco3)N(C)C)c2c1C (configuration not stated)
    -15%, 16%, -2.0%, -4%&-4%, -11%, -24%, -8%, -157%

Sequence of screens – SARS PLP yeast, Cruzain noTriton, Cruzain Triton, Marburg entry inh, LASV entry inh, 2A StopGo, RE007 growth inh, NS1 function inh
- CCOCC(=O)Nc1cc([N+](=O)[O-])ccc1OC
    -2%, ., ., 1%[46.1 µM], -1%, -9%, 7%, 1%
- O=C(Nc1cccc(S(=O)(=O)N2CCCCC2)c1)C1CCN(C(=O)c2ccc(Cl)cc2)CC1
    -2%, ., ., ?, -3%, ?, 1%, .
- CCC(Sc1nncn1C)C(=O)Nc1nnc(-c2ccccc2Cl)s1 (configuration not stated)
    1%, 16%, -0.1%, ., ., -3%, -3%, -10%
- COc1ccc(C2N(c3ccccc3)C(=O)C2(F)F)cc1OC (configuration not stated)
    -2%, ., ., 21%, 2%, -11%, 9%, 7%
- C=CCOc1c(OC)cc(Cl)cc1C1NC(=O)NC(C)=C1C(C)=O (configuration not stated)
    ., -3%, 1.3%, 7%, 4%, 2%, 3%, -4%
- CC(OC(=O)[C@H](C)NC(=O)c1ccccc1Cl)C(=O)NCc1ccc2c(c1)OCO2 (some centres not stated)
    3%, ., ., 11%, 0%, 1%, 29%, .
- Cn1nc(C(=O)OCC(=O)Nc2sccc2C(N)=O)c2ccccc2c1=O
    0%, ., ., -8%[46.1 µM], -13%, ?, 1%, 2%
- CCOc1ccc(NC(=O)Cn2nnc(-c3nc(-c4ccncc4)no3)c2N)cc1
    ., 7%, -2.5%, ., 20%[46.1 µM], 21%, ., .
- Cc1cc(=O)[nH]c(SCc2nnnn2-c2ccc(Cl)cc2)n1
    0%, 7%, -2.1%, -25%, 2%, 0%, 14%, 6%
- Cc1ccc(CN(CC(=O)NCc2ccc3c(c2)OCO3)C(=O)c2csnn2)cc1
    -9%, ., ., -23%[46.1 µM], -25%[46.1 µM], -4%, 5%, -11%
- CS(=O)(=O)N(CC(=O)Nc1cccc(Cl)c1)c1ccccc1Cl
    10%, 1%, -5.9%, -3%, 2%, -21%, 3%[3.69 µM], 8%
- COc1cc(/C=N/NC(=O)COc2c(C)cc([N+](=O)[O-])cc2C)ccc1OC(=O)c1ccccc1
    18%, 25µM*, -4.7%, 14%, -3%, -15%, 1%, 14%
